Assay outcomes deposited in PubChem by several laboratories.
HSV augment: HSV replication enhancement; HSV replication augmentation in cells, fold increase; maximum fold increase; 220,000 tested, 0.005% active; AID 1956;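 active = peak rise of 1.5-fold or more in the series; inconclusive = self-fluorescent or not available for retest; tested in PC3 cells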;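 note: first round at 10 µM; read as green reporter fluorescence; hits show the peak of a series up to 25 µM; 1 = signal of infected wells without compound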
PKD1 inh: PKD1 (human) kinase inhibition; Q15139; PKD1 kinase fluorescence polarization assay; inhibition, %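 (about 10 µM by stock and volumes)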; 200,000 tested, 0.056% active;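 active = inhibition of 50% or more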;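 note: controls were vehicle for no effect and a reference inhibitor for full effect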
RGS16-Gao: RGS16-Galphao interaction regulator (human); binding response (% of control), % at 10 µM; bead-based flow cytometry RGS16-Galphao binding, fluorescence; actives lie on both sides; 220,000 tested, 0.38% active; O15492+P09471;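 active = below 25% or above 175%, edge rows of some plates excepted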;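 note: Galphao activated by GDP with aluminum fluoride before binding; 100% = wells without compound and 0% = beads without RGS; some results beyond the cut were filed as inactive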
Target sequence (O15492 whole entry, looked up): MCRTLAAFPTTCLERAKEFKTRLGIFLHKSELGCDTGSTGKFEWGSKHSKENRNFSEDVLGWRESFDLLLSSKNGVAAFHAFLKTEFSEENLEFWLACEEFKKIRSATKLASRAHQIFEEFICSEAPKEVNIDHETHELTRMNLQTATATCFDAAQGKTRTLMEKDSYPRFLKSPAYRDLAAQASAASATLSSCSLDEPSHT
Target sequence (P09471 whole entry, looked up): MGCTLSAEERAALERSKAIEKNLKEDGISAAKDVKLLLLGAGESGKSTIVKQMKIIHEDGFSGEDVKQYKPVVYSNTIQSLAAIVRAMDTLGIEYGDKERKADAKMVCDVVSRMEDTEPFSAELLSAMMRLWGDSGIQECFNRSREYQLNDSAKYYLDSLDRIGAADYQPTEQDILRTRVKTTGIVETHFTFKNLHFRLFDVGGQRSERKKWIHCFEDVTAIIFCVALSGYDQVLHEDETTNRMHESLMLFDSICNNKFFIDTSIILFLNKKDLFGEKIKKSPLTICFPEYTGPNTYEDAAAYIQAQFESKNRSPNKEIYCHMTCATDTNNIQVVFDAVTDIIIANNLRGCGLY
GALR2 agonist: activates the human galanin receptor 2; 140,000 tested, 0.48% active; GALR2-expressing cells, agonist activation read-out; activation, %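 (tested at 5 µM)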; AID 803;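 active = above mean plus 3 SD of all compounds, about 5% in these data, not always enough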;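 note: 0% = vehicle buffer wells and 100% = reference agonist at full effect; tested in CHO reporter cells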
Target sequence (O43603 whole entry, looked up): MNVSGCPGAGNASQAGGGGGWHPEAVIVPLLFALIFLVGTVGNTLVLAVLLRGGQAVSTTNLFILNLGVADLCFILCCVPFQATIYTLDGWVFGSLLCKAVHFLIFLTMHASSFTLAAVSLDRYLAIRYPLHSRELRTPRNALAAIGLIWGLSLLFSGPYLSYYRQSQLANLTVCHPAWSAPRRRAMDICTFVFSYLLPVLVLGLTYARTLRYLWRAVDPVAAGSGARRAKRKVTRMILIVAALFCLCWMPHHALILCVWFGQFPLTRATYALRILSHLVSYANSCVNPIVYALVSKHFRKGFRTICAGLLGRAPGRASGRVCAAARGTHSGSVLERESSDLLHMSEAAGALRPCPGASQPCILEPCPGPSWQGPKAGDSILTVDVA
Insulin prom inh: TRM-6 insulin promoter activity inhibition; TRM-6 cells (human fetal islet line), insulin promoter-eGFP reporter, imaging; reporter expression induced with tamoxifen; inhibition, % at 2 µM; 130,000 tested, 0.9% active; AID 1273;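 active = inhibition above the mean plus 3 SD, with well images judged a real hit on visual review, cut at about 60% in these data, passing the limit was not always enough; inconclusive = inhibition over the cutoff but images rejected on review; inactive = inhibition not above the cutoff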
Insulin prom inh cell count: recorded beside Insulin prom inh, whose call it bears; normalized cell count, %; measured here: cell count, toxicity; reference of the scale not given here;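 cells exposed to compound for 48 h; stained nuclei by imaging scaled within each plate; lower means fewer cells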
HSV augment primary fold: second read-out of HSV augment, no call of its own (marks repeat the call); fold increase; compound at 10 µM; measured here: primary screen fold increase 10 uM; tested in PC3 cells;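 GFP signal in the first replicate; 1 = infected wells without compound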
* hit, by the source's call; & = joins results of further samples.

CC(C)(C)OC(=O)N1CCN(c2ccc([N+](=O)[O-])cc2)CC1 was read as HSV augment inactive, PKD1 inh 5.0, RGS16-Gao 100.1, Insulin prom inh -30.8, Insulin prom inh cell count 113.7 and HSV augment primary fold 1.03.
For O=C(O)CSc1nnnn1-c1ccccc1 the results were HSV augment inactive, PKD1 inh -5.8, RGS16-Gao 133.1, GALR2 agonist 7.0 and HSV augment primary fold 1.14.
O=C(Oc1ccc(Br)cc1C(=S)N1CCCCC1)c1cc([N+](=O)[O-])cc([N+](=O)[O-])c1 was read as HSV augment inactive, PKD1 inh 2.3, RGS16-Gao 103.4, GALR2 agonist -2.4, Insulin prom inh 50.0, Insulin prom inh cell count 103.5 and HSV augment primary fold 0.88.
For CCNC(=S)N1CCC(NC(=O)C2CCCCC2)CC1 the results were HSV augment inactive, PKD1 inh -5.7, RGS16-Gao 100.6, GALR2 agonist -0.5, Insulin prom inh 0.0, Insulin prom inh cell count 157.3 and HSV augment primary fold 0.94.
O=C(Nc1ccc(F)c(F)c1)c1ccccc1-c1ccccc1 was read as HSV augment inactive, PKD1 inh -4.1, RGS16-Gao 110.6, GALR2 agonist -1.0 and HSV augment primary fold 1.11.
Screening CCCC(=O)NC(c1ccco1)c1cc([N+](=O)[O-])c2cccnc2c1O (centres undefined) returned HSV augment inactive, PKD1 inh 4.5, RGS16-Gao 99.5, Insulin prom inh -6.7, Insulin prom inh cell count 100.0 and HSV augment primary fold 0.96.
Cc1ccccc1NC(=S)NCCc1c[nH]c2ccccc12 was read as HSV augment inactive, PKD1 inh 8.1, RGS16-Gao 41.5, GALR2 agonist -0.4, Insulin prom inh 39.5, Insulin prom inh cell count 88.4 and HSV augment primary fold 1.06.
O=C1CCCC(O)=C1N=Nc1ccc2ncsc2c1 was read as HSV augment inactive, PKD1 inh -0.7, RGS16-Gao 75.6, GALR2 agonist -1.0 and HSV augment primary fold 0.98.
`c1cnc(N2CCN(Cc3ccc4c(c3)OCO4)CC2)cn1` gave HSV augment inactive, PKD1 inh -2.4, RGS16-Gao 113.7 and HSV augment primary fold 0.95.
For COc1ccc(CCNC(=O)CCCOc2ccc(C)cc2)cc1OC the results were HSV augment inactive, PKD1 inh -5.4, RGS16-Gao 78.9, GALR2 agonist -1.3 and HSV augment primary fold 1.

Overlap with the part before: 2 entries, then new ones.
`c1cnc(N2CCN(Cc3ccc4c(c3)OCO4)CC2)cn1` gave HSV augment inactive, PKD1 inh -2.4, RGS16-Gao 113.7 and HSV augment primary fold 0.95.
For COc1ccc(CCNC(=O)CCCOc2ccc(C)cc2)cc1OC the results were HSV augment inactive, PKD1 inh -5.4, RGS16-Gao 78.9, GALR2 agonist -1.3 and HSV augment primary fold 1.
For CC(C(O)c1ccc(O)cc1)N1CCC(Cc2ccccc2)CC1 (centres undefined) the results were HSV augment inactive, PKD1 inh 1.8, RGS16-Gao 98.8&104.7, Insulin prom inh -40.0, Insulin prom inh cell count 59.1 and HSV augment primary fold 0.96&0.81.
CC(NC(=O)OC1CCCCC1)N1C(=O)C2C3C=CC(C3)C2C1=O (centres undefined) was read as HSV augment inactive, PKD1 inh -9.8, RGS16-Gao 100.8, GALR2 agonist -3.5, Insulin prom inh 53.9, Insulin prom inh cell count 96.5 and HSV augment primary fold 0.95.
`COc1ccc(S(=O)(=O)N2CCCN(Cc3cccc(F)c3)CC2)cc1` gave PKD1 inh -0.2, RGS16-Gao 96.1, GALR2 agonist -3.9, Insulin prom inh -24.2 and Insulin prom inh cell count 129.6.
CN(C)S(=O)(=O)c1ccc(C(=O)Nc2ccnn2C2CCCCC2)cc1 was read as HSV augment inactive, PKD1 inh -4.0, RGS16-Gao 106.5, GALR2 agonist 0.4, Insulin prom inh 0.0, Insulin prom inh cell count 127.5 and HSV augment primary fold 0.85.
`CCOC(=O)C1CCCN(C(=O)COC(=O)C2=COCCO2)C1` (centres undefined) gave HSV augment inactive, PKD1 inh -10.5, RGS16-Gao 102.7, GALR2 agonist -1.8, Insulin prom inh 20.0, Insulin prom inh cell count 86.6 and HSV augment primary fold 0.83.
`Cc1cc(C)n(C2CCCCC2OC(=O)CCc2ccccc2)n1` (centres undefined) gave HSV augment inactive, RGS16-Gao 100.1 and HSV augment primary fold 0.9.
`O=S(=O)(c1ccc(F)cc1)n1ccc(-c2cnc(-c3ccccc3)s2)n1` gave HSV augment inactive, PKD1 inh 4.1, RGS16-Gao 102.4, GALR2 agonist -1.8, Insulin prom inh 28.1, Insulin prom inh cell count 136.5 and HSV augment primary fold 1.11.
Screening O=C(Cc1ccc(Cl)cc1)Nc1nc2ccccc2[nH]1 returned HSV augment inactive, PKD1 inh -10.9, RGS16-Gao 93.4, GALR2 agonist -1.3, Insulin prom inh -23.6, Insulin prom inh cell count 50.8 and HSV augment primary fold 0.91.
Screening O=c1c(C(c2ccc(F)cc2)c2c(O)nc3n(c2=O)CCCS3)c(O)nc2n1CCCS2 returned HSV augment inactive, RGS16-Gao 98.3 and HSV augment primary fold 1.05.
Screening CC1(C)CC(=O)C2=C(C1)C(c1cn(-c3ccccc3)nc1-c1ccccc1)C(C#N)=C(N)O2 (centres undefined) returned HSV augment inactive, PKD1 inh -6.0, RGS16-Gao 102.5, GALR2 agonist 1.0 and HSV augment primary fold 1.09.
Screening COCCNC(=O)c1sc2ncn(CC(=O)N3CCCCC3)c(=O)c2c1C returned HSV augment inactive, PKD1 inh -7.6, RGS16-Gao 95.7, GALR2 agonist -1.9 and HSV augment primary fold 0.91.
For Cc1noc(C(=O)Nc2ccccc2C(F)(F)F)c1Cl the results were HSV augment inactive, PKD1 inh -3.1, RGS16-Gao 90.3, GALR2 agonist -2.4, Insulin prom inh -22.2, Insulin prom inh cell count 138.9 and HSV augment primary fold 0.97.
`O=C(NCc1cccs1)c1nc(-c2cccs2)no1` gave HSV augment inactive, PKD1 inh 6.9, RGS16-Gao 110.3, Insulin prom inh 33.3, Insulin prom inh cell count 112.7 and HSV augment primary fold 0.99.
CO/N=C/C(=N\Nc1ccc(OC)cc1)C(=O)c1ccc(OC)cc1 was read as HSV augment inactive, PKD1 inh 1.2, RGS16-Gao 98.7, GALR2 agonist -0.6, Insulin prom inh -6.5, Insulin prom inh cell count 77.7 and HSV augment primary fold 0.977.
For O=P(O)(CCc1ccccc1)CN1CCCCC1 the results were HSV augment inactive, PKD1 inh -11.0, RGS16-Gao 101.0, GALR2 agonist -1.2, Insulin prom inh 17.5, Insulin prom inh cell count 115.6 and HSV augment primary fold 1.08.
COc1cccc(C(=O)N/N=C(\CC(C)C)c2ccccc2)c1 was read as HSV augment inactive, PKD1 inh -3.5, RGS16-Gao 125.5, GALR2 agonist -1.0, Insulin prom inh 34.4, Insulin prom inh cell count 102.0 and HSV augment primary fold 0.97.
For O=C(CCC(=O)OCc1cccc([N+](=O)[O-])c1)Nc1ccccc1Cl the results were HSV augment inactive, PKD1 inh -10.7, RGS16-Gao 86.9, Insulin prom inh -14.3, Insulin prom inh cell count 143.8 and HSV augment primary fold 0.97.
For CSc1ccc(CN(C)CC(=O)Nc2ccccc2Br)cc1 the results were HSV augment inactive, PKD1 inh 4.2, RGS16-Gao 196.0, GALR2 agonist 0.8, Insulin prom inh -2.0, Insulin prom inh cell count 88.2 and HSV augment primary fold 1.07.
COc1ccccc1CNC(=O)CN1CCN(S(=O)(=O)c2cccs2)CC1 was read as HSV augment inactive, PKD1 inh -3.1, RGS16-Gao 92.7 and HSV augment primary fold 0.84.
For CC(C)(C)NC(=O)C(c1ccncc1)N(C(=O)c1csnn1)c1ccccc1 (centres undefined) the results were HSV augment inactive, PKD1 inh -0.3, RGS16-Gao 97.3, GALR2 agonist -2.0 and HSV augment primary fold 1.04.
Screening CCOC(=O)Cc1csc(NC(=O)c2csc(C)c2)n1 returned HSV augment inactive, PKD1 inh -7.6, RGS16-Gao 98.3, GALR2 agonist -2.3, Insulin prom inh 50.0, Insulin prom inh cell count 126.9 and HSV augment primary fold 1.05.
Screening COC1=C/C(=C/c2c(N)n3c(nc2=O)sc2cc(S(C)(=O)=O)ccc23)C=CC1=O returned HSV augment inactive, RGS16-Gao 95.0 and HSV augment primary fold 1.28.
For CN(CC(=O)N1CCN(c2ccccc2)CC1)S(=O)(=O)c1cnc[nH]1 the results were HSV augment inactive, PKD1 inh -3.6, RGS16-Gao 96.0, GALR2 agonist -1.2 and HSV augment primary fold 1.05.
O=C(NC(=O)c1cccc(F)c1)Nc1nc(-c2ccc(F)cc2)cc(C(F)(F)F)n1 was read as HSV augment inactive, PKD1 inh -0.9, RGS16-Gao 107.0, Insulin prom inh -25.0, Insulin prom inh cell count 135.6 and HSV augment primary fold 0.93.
COc1cccc(CN(C(=O)Cc2c[nH]c3ccccc23)C(C(=O)NC2CCCCC2)c2cccs2)c1 (centres undefined) was read as HSV augment inactive, PKD1 inh 7.8, RGS16-Gao 73.9, GALR2 agonist -3.4, Insulin prom inh -50.0, Insulin prom inh cell count 83.1 and HSV augment primary fold 0.77.
Screening Cc1cccc2cc(CN(Cc3cccs3)C3(c4nnnn4C4CCCC4)CCCC3)c(=O)[nH]c12 returned HSV augment inactive, PKD1 inh 3.4, RGS16-Gao 92.5, GALR2 agonist -0.9 and HSV augment primary fold 0.85.
`Cc1ccc(/C=N/NC(=O)c2c[nH]c3ccccc23)o1` gave HSV augment inactive, PKD1 inh 15.0, RGS16-Gao 107.9, GALR2 agonist -1.2 and HSV augment primary fold 0.83.
`O=C1[C@@H]2[C@H](Cc3ccc(O)cc3)N[C@]3(C(=O)Nc4ccccc43)[C@@H]2C(=O)N1c1ccc(F)cc1` gave HSV augment inactive, PKD1 inh -7.5, RGS16-Gao 86.9, GALR2 agonist -1.8, Insulin prom inh 0.0, Insulin prom inh cell count 100.6 and HSV augment primary fold 1.28.
Screening Cc1cc(=O)n(C)c(=O)n1CCCCCOc1cccc([N+](=O)[O-])c1 returned HSV augment inactive, PKD1 inh -3.9, RGS16-Gao 95.8, GALR2 agonist -1.5 and HSV augment primary fold 0.89.
Screening c1ccc(-c2nc3ccccc3[nH]2)nc1 returned HSV augment inactive, PKD1 inh -0.3, RGS16-Gao 167.3, GALR2 agonist -0.3, Insulin prom inh 44.4, Insulin prom inh cell count 152.6 and HSV augment primary fold 0.9.
For CCc1ccc(C2CC(c3cccc(Cl)c3)n3nc(N)nc3N2)cc1 (centres undefined) the results were PKD1 inh -12.7, RGS16-Gao 98.4, GALR2 agonist -1.2, Insulin prom inh 60.0 and Insulin prom inh cell count 64.3.
O=C(NCCN1CCN(C(=O)C(c2ccccc2)c2ccccc2)CC1)C(=O)Nc1ccccc1 was read as HSV augment inactive, PKD1 inh -12.7, RGS16-Gao 100.0, GALR2 agonist -2.3, Insulin prom inh 37.5, Insulin prom inh cell count 116.0 and HSV augment primary fold 0.92.
Screening CN1Cc2ccccc2CC1CNCc1c(C(=O)N2CCCC2)nc2ccccn12 (centres undefined) returned HSV augment inactive, PKD1 inh -2.7, RGS16-Gao 121.9 and HSV augment primary fold 0.94.
For COc1ccc(/C=C(/NC(=O)c2cccs2)C(=O)Nc2ccc(C)cc2)cc1OC the results were HSV augment inactive, PKD1 inh -14.1, RGS16-Gao 112.8, GALR2 agonist -0.8, Insulin prom inh 31.0, Insulin prom inh cell count 39.6 and HSV augment primary fold 1.01.
CC(=O)c1c(C)[nH]c(C(=O)OCCCCN2C(=O)c3ccccc3C2=O)c1C was read as HSV augment inactive, PKD1 inh 5.9, RGS16-Gao 103.4, GALR2 agonist -0.3 and HSV augment primary fold 1.08.
`CN(C)CCCn1c(N)c(C#N)c2nc(C#N)c(C#N)nc21` gave PKD1 inh -1.0, RGS16-Gao 100.1, GALR2 agonist 5.3, Insulin prom inh -94.3 and Insulin prom inh cell count 50.0.
COc1cccc(-n2ccnc2SCC(=O)Nc2ccccc2)c1 was read as HSV augment inactive, PKD1 inh 1.1, RGS16-Gao 104.4, GALR2 agonist 0.4 and HSV augment primary fold 1.
Screening CCOC(=O)C1CCCN(C(=O)Cc2c(F)cccc2Cl)C1 (centres undefined) returned HSV augment inactive, PKD1 inh -3.4, RGS16-Gao 105.9, GALR2 agonist -0.2, Insulin prom inh -71.4, Insulin prom inh cell count 87.6 and HSV augment primary fold 1.03.
Screening COc1ccc(S(=O)(=O)N/N=C\c2ccc(OC)c(COc3ccc(C)cc3[N+](=O)[O-])c2)cc1 returned HSV augment inconclusive, PKD1 inh -2.6, RGS16-Gao 106.8, GALR2 agonist -2.9, Insulin prom inh -21.1 and Insulin prom inh cell count 97.0.
For COc1ccc(N(CC(=O)Nc2ccccc2C)S(=O)(=O)c2ccccc2[N+](=O)[O-])c(OC)c1 the results were HSV augment inactive, PKD1 inh -9.5, RGS16-Gao 96.8, Insulin prom inh -17.9, Insulin prom inh cell count 142.4 and HSV augment primary fold 0.85.
